# FGF22 binding: FGF22 (human) thermal shift binding. Q9HCT0. recombinant FGF22 thermal shift, SYPRO orange fluorescence; percent of sucrose octasulfate shift, DMSO zero. calls only at 9.99 µM. 340,000 tested, 1.5% active. AID 651658;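 active = melting point raised past a set limit in the mean and every replicate; three in four hits are not shown here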
# Target sequence (Q9HCT0 whole entry, looked up): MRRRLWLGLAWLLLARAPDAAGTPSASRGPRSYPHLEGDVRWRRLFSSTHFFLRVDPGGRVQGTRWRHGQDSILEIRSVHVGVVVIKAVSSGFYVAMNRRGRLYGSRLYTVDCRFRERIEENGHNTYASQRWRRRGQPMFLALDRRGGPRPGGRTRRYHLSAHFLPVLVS
# UCH37 DUB inh: blocks the human deubiquitinase UCH37; purified proteasome/UCH37, Ub-AMC cleavage fluorescence; inhibition, % (no concentration beside the values); Q9Y5K5; 330,000 tested, 0.33% active;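 active = mean of two replicates above 20%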;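 note: 0% = compound-free wells with enzyme and 100% = wells lacking proteasome; stock transfer was 100 nL into about 20 µL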
#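 Material: human UCH37 enzyme supplied as purified proteasome complex / Amount: 0.15 nM proteasome as dispensed / Buffer or medium: pH 7.4 Tris-HCl (50 mM) with ovalbumin, ATP-MgCl2, DTT / Times: preincubation 30 min, reaction 25 min, room temperature / Technique: AMC fluorescence from Ub-AMC cleavage, excitation 355 nm, emission 460 nm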
# Ecoli rRNA inh: inhibits bacterial ribosomal RNA function over humanized ribosomes; E. coli WT GFP vs humanized-ribosome RFP mutants, fluorescence, 24 h; stronger effect = lower value; DMSO median 0, no signal -100; GFP signal change (wild-type ribosome), % (test concentration not listed); 350,000 tested, 1.6% active;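 active = significant combined selectivity score with lowered wild-type GFP, culture density cut under 30%, mutant RFP and density less affected; inactive = any of these conditions unmet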; note: one replicate is shown; some compounds called inactive have numbers as strong as hits
# B2AR ag: agonists of human beta-2 adrenergic receptor inducing internalization. P07550. Am2.2-beta2AR cells, FAP receptor internalization, flow cytometry; reference of the scale not given here. response, % (concentration not given with the values). 340,000 tested, 0.43% active. AID 504454;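 active = response above a set limit, near 3 SD of response in nonfluorescent compounds, cut at about 42% in these data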;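 note: stock transfer was 100 nL into about 11 µL; a reference agonist was the positive control; negative values mostly stem from fluorescent compounds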
# Target sequence (P07550 whole entry, looked up): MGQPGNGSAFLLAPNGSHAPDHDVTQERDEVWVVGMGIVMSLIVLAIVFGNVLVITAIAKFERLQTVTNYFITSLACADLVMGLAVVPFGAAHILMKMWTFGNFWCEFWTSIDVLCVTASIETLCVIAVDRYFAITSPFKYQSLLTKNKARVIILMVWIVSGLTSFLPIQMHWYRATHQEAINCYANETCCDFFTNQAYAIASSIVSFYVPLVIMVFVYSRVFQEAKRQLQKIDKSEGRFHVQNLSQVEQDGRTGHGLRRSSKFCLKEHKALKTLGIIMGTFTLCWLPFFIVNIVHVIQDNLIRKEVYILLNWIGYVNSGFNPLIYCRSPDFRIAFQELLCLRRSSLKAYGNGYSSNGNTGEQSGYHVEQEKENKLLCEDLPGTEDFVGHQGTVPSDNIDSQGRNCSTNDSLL
# ALR H2O2 inh: inhibitors of human sulfhydryl oxidase ALR; P55789; purified ALR, DTT oxidation, H2O2 HRP-luminol luminescence; inhibition, % (test concentration not listed); 290,000 tested, 3.8% active; AID 485317;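 active = mean and each replicate at 75% or more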;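 note: stock transfer was 7.5 nL into about 7.5 µL; 0% = neutral wells and 100% = wells with inactivated enzyme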
# Target sequence (P55789 whole entry, looked up): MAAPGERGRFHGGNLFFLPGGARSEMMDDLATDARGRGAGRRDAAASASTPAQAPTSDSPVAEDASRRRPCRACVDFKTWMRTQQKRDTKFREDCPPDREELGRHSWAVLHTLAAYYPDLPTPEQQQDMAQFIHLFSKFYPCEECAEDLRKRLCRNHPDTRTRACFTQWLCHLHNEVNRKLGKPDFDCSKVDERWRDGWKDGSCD
# Ecoli growth: E. coli growth inhibition. AID 1053175. Escherichia coli growth, OD600, 23 h; stronger effect = lower value. OD600 absorbance (test concentration not listed). 330,000 tested, 0.21% active;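 active = OD600 absorbance below the run mean of sample wells minus 3.6 SD, in any replicate, cut at about 0.56 in these data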;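 note: stock transfer was 300 nL into about 60 µL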
# HNF4A DNA FP: change in binding of human HNF4 alpha to DNA. P41235. HNF4a-FITC DNA binding, fluorescence polarization, 1 h. activity change, % at 10 µM. 360,000 tested, 0.3% active. AID 1224865; in the data active = activity change above about 30%, passing the limit was not always enough;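 note: controls were the assay level and a saturating level of protein; the project sought stronger binding though the title names inhibitors; some compounds called inactive have numbers as strong as hits; positive values seem to mean higher polarization but the record does not say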
# Ecoli rRNA inh OD600: also measured in Ecoli rRNA inh; calls as there; OD600 change, %; measured here: OD600 growth;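 optical density of the mix in the first replicate; 0 = DMSO median and -100 = no signal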
# Ecoli rRNA inh RFP: further read-out of Ecoli rRNA inh, marked with its call; RFP signal change, %; measured here: RFP humanized mutant strains;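 first replicate; 0 = DMSO median and -100 = no signal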
# * hit, by the source's call; i = inactive; . = not tested or not shown; & = joins results of further samples. Only part of the results is shown; rates above refer to the full screens.
SMILES,FGF22 binding,UCH37 DUB inh,Ecoli rRNA inh,Ecoli rRNA inh OD600,Ecoli rRNA inh RFP,B2AR ag,ALR H2O2 inh,Ecoli growth,HNF4A DNA FP
CNS(=O)(=O)c1cccc2nsnc12,i,4.6,-51,-80,-18,-13,-8,0.69,2.7
Cn1ccnc1SCC(=O)Nc1cccc2ccccc12,.,1.8,.,.,.,-3,67,0.72,-0.4
CC(=O)Nc1ccc2nc(SCC(=O)NCCOc3ccccc3)sc2c1,i,3.9,-18,-23,0.6,-13,-2,0.7,1.0
COc1ccc(C(=O)NCc2ccc(C)cc2)cc1S(=O)(=O)N1CCOCC1,i,.,-1,20,0.2,.,.,.,-0.2
C=CCOc1ccccc1CN1CCC(Oc2ccc(C(=O)N3CCCCC3)cc2)CC1,i,4.7,-3,-12,1.1,-7,-2,0.7,-0.2
CCOC(=O)C1=C(C)NC2=C(C(=O)C(C(=O)OCC)C(c3cccc(OC)c3)C2)C1c1ccccn1 (stereo not drawn),.,-105,.,.,.,-2,-13,0.8,3.8
CC(C)(C)OC(=O)CNC(=O)c1[nH]cnc1C(=O)N[C@@H](Cc1ccccc1)C(=O)OCc1ccccc1,i,0.2,2,-2,4.8,10,4,.,-2.6
COc1ccccc1CNC(=O)C(NC(=O)c1ccccc1C)C(C)C (stereo not drawn),i,-1.9,12,12,1.0,0,-5,0.69,2.6
COC(CNC(=O)c1cccc2c1C(=O)N(Cc1cccnc1)C2)OC,.,4.7,.,.,.,2,0,0.7,-5.2
CCOC(=O)c1ccc(NC(=S)N2CCCC(C(=O)N3CCCC3)C2)cc1 (stereo not drawn),i,-0.7,-2,-10,0.1,0,-2,0.71,0.7
CC(=O)Nc1ccc(S(=O)(=O)N(C)CC(=O)NC2CCCC(C)C2C)cc1 (stereo not drawn),i,5.1,-5,-3,-1.8,2,0,0.69,16
CCNC(=O)C1(C)CCN(C(=O)c2cccc(C(F)(F)F)c2)C1 (stereo not drawn),i,.,13,10,4.3,.,.,.,-2.2
O=C(COC(=O)c1ccccc1)Nc1cc(Cl)ccc1Oc1ccccc1,i,-2.1,-27,-27,-5.4,-7,-11,0.69,2.9
COC(=O)c1onc(-c2c(C)cc(C)cc2C)c1C(=O)OC,.,0.0,.,.,.,30,4,0.7,3.0
CC(C)n1nnnc1SCC(=O)N1CCOCC1,.,1.3,.,.,.,0,1,0.77,1.9
CCN(C[C@H]1N[C@@](Cc2ccccc2)(C(=O)OC)[C@H]2C(=O)N(Cc3ccccc3)C(=O)[C@@H]12)C(=O)c1ccc(C)cc1,i,1.2,0,10,2.3,-1,.,0.74,-3.2
C[C@@H](O)C1NC(=O)[C@H](CCCCN)NC(=O)c2cc([N+](=O)[O-])cc(I)c2NCCC[C@@H](C(N)=O)NC1=O (stereo partly drawn),i,2.5,15,19,-8.0,0,-13,0.74,-0.8
Cc1ccc(C(=O)Nc2ccc3ccccc3n2)cc1,i,1.0,-16,-12,-1.7,1,-4,0.66,6.2
CC(=O)N1CCc2cc(Br)cc(S(=O)(=O)NCCCN3CCCC(C)C3)c21 (stereo not drawn),.,-0.3,.,.,.,-3,-3,0.7,0.8
C#CCO[C@@H]1C[C@H](n2ccc(NC(=O)c3ccccc3)nc2=O)O[C@@H]1CO,i,4.4,7,15,-0.4,8,11,.,-2.8
C=CCn1ncc(OC)c(Cl)c1=O,i,0.9,-17,-7,-0.3,16,-3,0.74,-2.8
COc1ccccc1Cc1noc(COc2cccc(C)c2C)n1,.,2.2,.,.,.,9,-4,0.67,2.9
COc1cc(C2Nc3cccc4cccc(c34)N2)cc(OC)c1O,i,-115,-64,55,-30,18,7,0.63,-0.3
CCOc1ccc(NCc2nnc(SCc3ccccc3Cl)n2-c2ccccc2)cc1,.,7.3,.,.,.,9,16,0.72,-0.5
CCCCOC(=O)c1ccc(NC(=O)c2c(Cl)ccc(Cl)c2OC)cc1,.,1.1,.,.,.,5,2,0.68,3.0

# Arranged by value in HNF4A DNA FP (smallest number first): three of the compounds above.
SMILES	FGF22 binding	UCH37 DUB inh	Ecoli rRNA inh	Ecoli rRNA inh OD600	Ecoli rRNA inh RFP	B2AR ag	ALR H2O2 inh	HNF4A DNA FP
COC(CNC(=O)c1cccc2c1C(=O)N(Cc1cccnc1)C2)OC	.	4.7	.	.	.	2	0	-5.2
CC(C)(C)OC(=O)CNC(=O)c1[nH]cnc1C(=O)N[C@@H](Cc1ccccc1)C(=O)OCc1ccccc1	i	0.2	2	-2	4.8	10	4	-2.6
COc1ccccc1CNC(=O)C(NC(=O)c1ccccc1C)C(C)C (stereo not drawn)	i	-1.9	12	12	1.0	0	-5	2.6

# (further entries)
SMILES,FGF22 binding,UCH37 DUB inh,Ecoli rRNA inh,Ecoli rRNA inh OD600,Ecoli rRNA inh RFP,B2AR ag,ALR H2O2 inh,Ecoli growth,HNF4A DNA FP
O=C(CN1CCOCC1)N1CCN(c2nnc(-c3ccccc3)c3ccccc23)CC1,.,7.8,.,.,.,69*,-3,0.75,-2.1
Cc1ccc(S(=O)(=O)N2CCOCC2)cc1C(=O)OCC(=O)NCCc1ccccc1,i,2.3,-6,-27,-4.2,2,-10,0.68,-1.9
CC1CCN(C(C(=O)Nc2ccc(C(C)C)cc2)c2ccc3c(c2)OCO3)CC1 (stereo not drawn),i,4.2,-11,-29,9.0,34,.,0.77,4.0
C/C(=N\NC(=O)c1cc(C2CC2)nc2ccccc12)c1ccc(O)cc1O,i,.,3,-18,-7.6,10,66,.,-1.9
CCOc1ccc2nc(NC(=O)c3cc([N+](=O)[O-])ccc3N3CCOCC3)sc2c1,i,0.4,-18,-20,-1.1,16,-4,0.7,1.3
CCOc1cc(S(=O)(=O)Nc2ccccn2)ccc1F,.,-0.8,.,.,.,-5,3,0.75,1.1
Cc1cnc(C(=O)OCC(=O)NC2CCCCC2)cn1,.,2.7,.,.,.,1,3,0.71,-2.9
CC(C)CCN1CCC(C)(NC(=O)c2ccccc2)C1=O (stereo not drawn),i,0.5,5,11,-2.6,3,-6,0.65,-1.6
CCc1nc2ccc(C(=O)Nc3cc(-c4ccccc4)ccc3OC)cn2c1N(C)C(=O)c1cccc(OC)c1,i,.,8,4,1.2,.,.,.,1.3
C[C@H](CO)N1C[C@H](C)[C@@H](CN(C)C(=O)c2ccccc2)Oc2cc(C#C[C@@H](C)O)ccc2S1(=O)=O,i,.,-1&1,1&10,0.2&-4.2,.,.,.,4.8
CCCCNc1nc2c(c(=O)n(Cc3ccccc3)c(=O)n2C)n1C,i,2.1,5,6,-1.9,-1,-15,0.64,-2.4
COc1ccc(-c2[nH]c3ccccc3c2SCCN)cc1,i,-3.5,4,-10,-5.0,-7,-5,0.63,1.8
O=C(NCc1c(Cl)cccc1Cl)c1ccc2nnsc2c1,i,5.4,15,9,0.2,-7,.,0.72,8.9
Cc1onc(-c2ccccc2)c1C(=O)NC1CCC(C)CC1 (stereo not drawn),i,1.3,.,.,.,-4,-2,0.69,-0.9
CN(c1ccc(O)cc1)c1nc(O)c(C2=c3ccccc3=NC2=O)s1,i,5.5,-13,-1,0.7,-10,-2,0.66,-5.5
Cc1ccc(-c2ccc(=O)n(CC(=O)Nc3ccc4c(c3)OCCO4)n2)cc1,i,-0.1,6,8,-4.2,-1,-2,0.67,-5.4
O=C(CSc1nnnn1Cc1ccccc1)c1ccccc1,.,-0.6,.,.,.,-14,4,0.73,3.1
Cc1c(C=O)c2ccccn2c1C(=O)c1ccc(Cl)c([N+](=O)[O-])c1,i,3.2,18,15,1.3,8,-10,0.72,-0.2
COc1ccc2c([N+](=O)[O-])c(N3CCOCC3)[nH]c2c1,i,.,4,-4,0.8,.,.,.,0.6
O=C(NC1CCCCCC1)C1CCN(C(=O)c2ccc(Br)cc2)CC1,i,-2.3,9,12,2.5,-4,2,0.69,2.2
COc1cc(OC)cc(-c2c(-c3ccsc3)c3cc(Br)ccc3n2C)c1,i,-4.9,-29,-45,-19,1,1,0.73,4.5
Cn1c(SCc2c(Cl)cccc2Cl)nc(C(F)(F)F)cc1=O,.,0.3,.,.,.,-4,-2,0.7,2.7
CCCCNC(=O)C(NC(=O)c1cccs1)C(=O)c1ccccc1 (stereo not drawn),i,.,9,11,4.0,.,.,.,-3.9
COC(=O)c1cc(S(=O)(=O)N2CCN(c3ccc(OC)cc3)CC2)cn1C,i,2.7,8,7,-0.1,5,13,0.71,-0.2
CCOc1ccccc1NC(=O)CSc1nnc(-c2ccco2)n1Cc1ccco1,.,0.5,.,.,.,3,8,0.65,0.6

# Next part:
SMILES,FGF22 binding,UCH37 DUB inh,Ecoli rRNA inh,Ecoli rRNA inh OD600,Ecoli rRNA inh RFP,B2AR ag,ALR H2O2 inh,Ecoli growth,HNF4A DNA FP
CC1=C(C(=O)Nc2ccccc2)C(c2ccco2)C(C#N)=C(SCC(N)=O)N1 (stereo not drawn),i,-8.5,0,4,-0.2,-4,19,0.67,1.8
N#CNC(=Nc1cccc(F)c1)SCc1cccc(F)c1,i,3.2,-4,-1,-1.1,24,-1,0.69,1.8
CCOc1cc2c(cc1OCC)CN(CC(=O)Nc1ccccc1C(=O)NC1CC1)CC2,i,-2.0,6,7,-3.7,0,1,0.68,1.4
O=C(Nc1ccc(NS(=O)(=O)c2ccccc2)c(Cl)c1)c1ccccc1,i,4.1,-39,-64,-14,-3,.,0.68,1.7
CC(=O)N1CCN(S(=O)(=O)c2cccc(C(=O)OCC(=O)N(CCC#N)c3ccc(F)cc3)c2)CC1,i,.,.,.,.,1,.,.,-2.2
CC(/C=C/c1ccccc1)=N/NC(=O)CNC(=O)c1ccccc1F,i,.,7,16,1.2,1,-1,.,-1.2
C=CC[C@]12C[C@@H](OC)C(=O)C=C1O[C@@H](c1ccc(OC)c(OC)c1)[C@H]2C,i,3.8,.,.,.,11,-7,0.71,-0.7
O=P(Cc1ccccc1)(Cc1ccccc1)c1ccccc1,i,.,-2,3,0.0,3,.,.,-3.5
Cc1oc(-c2ccc(Cl)cc2)nc1CN1CCC(C(=O)NCc2cccnc2)CC1,.,-0.6,.,.,.,8,-5,0.62,2.4
CCOC(=O)c1c(NC(=O)C2C3CCC(O3)C2C(=O)O)sc(C)c1-c1ccc(F)cc1 (stereo not drawn),.,1.8,.,.,.,0,-3,0.8,-0.3
O=c1c(OCc2ccccc2)cccn1Cc1ccccc1,i,.,-1,-9,-2.1,.,.,.,-3.2
O=C(c1cc(COc2ccc3ncccc3c2)on1)N1CCCC(O)C1 (stereo not drawn),i,-0.1,-4,-13,-4.2,-2,-52,0.68,0.9
CCC(Sc1nc2ccccc2o1)C(=O)Nc1nnc(C)s1 (stereo not drawn),.,-22,.,.,.,-8,61,0.7,1.3
CSCC(=O)NCC1(N(C)Cc2ccccc2)Cc2ccccc2C1,i,1.8,0,1,-1.6,9,-1,0.65,-2.8
COc1cccc(Oc2c(C)oc3c(CN4CCCCC4)c(O)ccc3c2=O)c1,i,i,8,13,5.1,-7,4,0.7,-3.8
CC(C(=O)N1CCCCC1)n1sc2ccccc2c1=O (stereo not drawn),.,9.4,.,.,.,5,2,0.7,0.2
CCOC(=O)CNC(=O)c1ccc(C#CC2(O)CCCCC2)cc1,i,1.2,3,6,-0.1,2,-8,0.71,0.2
Cc1ccsc1C(=O)Nc1nccs1,.,-0.6,6,12,1.1,-18,-2,0.69,0.2
CCCCNC(=S)NNc1c(Cl)cc(Cl)cc1Cl,.,1.9,2,5,0.4,-7,-11,0.73,2.9
O=c1[nH]c(C2CCN(S(=O)(=O)c3ccc4c(c3)OCCO4)CC2)nc2c1nnn2Cc1ccc(F)cc1,i,4.0,-10,-15,0.0,9,-11,0.67,0.3
COCCCNC(=O)CN1C(=O)c2ccccc2C1=O,.,3.8,.,.,.,6,0,0.66,0.8

# Compound activity as filed in PubChem BioAssay.
